KCNQ2 pot = potentiators of rat KCNQ2 potassium channel | hit rate 0.54% among 310,000 | CHO-K1 KCNQ2, FluxOR thallium flux fluorescence; active compounds read high | Potassium voltage-gated channel subfamily KQT member 2 (Rattus norvegicus), O88943 | AID 2239, 2010 | B-score at 10 µM;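 active means fluorescence ratio B-score at least 3 SD of library B-scores, with initial fluorescence B-score within 3 SD, cut at about 5.3 in these data; same plate scores as AID 2156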;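 further: B-score of peak minus minimum over baseline fluorescence ratio after K+ and Tl+ stimulus; positive B-score means potentiation of KCNQ2 with more thallium influx and brighter signal; only the inactives scoring about 0 or higher are listed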
Target sequence (O88943 whole entry, looked up): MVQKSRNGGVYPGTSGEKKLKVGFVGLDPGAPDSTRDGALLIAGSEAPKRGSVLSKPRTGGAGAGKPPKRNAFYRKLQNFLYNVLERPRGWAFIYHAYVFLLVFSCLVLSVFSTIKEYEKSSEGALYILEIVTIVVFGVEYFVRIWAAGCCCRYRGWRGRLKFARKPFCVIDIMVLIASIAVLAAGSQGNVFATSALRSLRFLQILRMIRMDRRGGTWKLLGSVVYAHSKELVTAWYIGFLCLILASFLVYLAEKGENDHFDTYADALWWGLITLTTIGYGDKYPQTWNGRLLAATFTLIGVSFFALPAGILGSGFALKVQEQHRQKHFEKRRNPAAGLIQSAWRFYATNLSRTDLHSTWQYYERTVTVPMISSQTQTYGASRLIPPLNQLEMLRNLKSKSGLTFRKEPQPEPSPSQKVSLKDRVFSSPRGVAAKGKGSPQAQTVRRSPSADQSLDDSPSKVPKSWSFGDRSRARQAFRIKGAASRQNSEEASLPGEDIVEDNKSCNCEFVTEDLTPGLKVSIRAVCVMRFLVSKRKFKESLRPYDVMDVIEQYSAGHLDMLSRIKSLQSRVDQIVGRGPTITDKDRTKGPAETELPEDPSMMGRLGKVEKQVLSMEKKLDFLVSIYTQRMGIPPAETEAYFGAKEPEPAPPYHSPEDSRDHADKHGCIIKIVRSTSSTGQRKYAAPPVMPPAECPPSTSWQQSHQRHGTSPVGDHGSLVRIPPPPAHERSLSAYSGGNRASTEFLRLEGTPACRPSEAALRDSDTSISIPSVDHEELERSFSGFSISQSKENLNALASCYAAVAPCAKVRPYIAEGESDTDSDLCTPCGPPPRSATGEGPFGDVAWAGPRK
KCNQ2 pot baseline = recorded beside KCNQ2 pot, whose call it bears; B-score; compound at 10 µM; measured here: initial fluorescence intensity artifact check;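 brightness before thallium and not channel activity; 0 = typical well and far values either way flag optical interference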
* marks the source's active call; other numbers are inactive results. Only part of the results is shown; the hit share may differ from the screen's.

Structure | KCNQ2 pot | KCNQ2 pot baseline
N=C1SCC(=O)N1c1ccccc1Cl | 0.27 | 0.5
COc1cc(CC(=O)O)c([N+](=O)[O-])cc1OC | 0.17 | 0.81
CC(=O)N(Cc1ccccc1)c1ccc(C(=O)O)cc1 | 0.97 | 0.28
CCN(CC)CCn1c2c(c(SCC(=O)Nc3cc(OC)cc(OC)c3)nc1=O)CCC2 | 1.4 | -0.95
CC(=O)c1cccc(NC(=S)NCc2ccco2)c1 | 0.1 | 0.79
CN(C)CCN1C(=O)C(=O)/C(=C(/O)c2ccc(F)cc2)C1c1ccccc1F (configuration not stated) | 0.33 | 2.1
COc1ccc(CCNC(=O)COc2ccc(S(=O)(=O)NC(C)C)cc2)cc1OC | 0.86 | -1.4
Cc1cc(C)c(C(=O)CSc2nnc(-c3ccccc3Br)o2)cc1C | 1.6 | -1.4
CC1(C)CC(=O)C(N=Nc2cccc(F)c2C#N)=C(O)C1 | 0.01 | 0.41
CC1=NCCN1S(=O)(=O)c1ccccc1[N+](=O)[O-] | 0.42 | 0.59
Cc1cccc2c1-c1sc(C(=O)Nc3nccs3)cc1CO2 | 0.53 | -0.48
COc1cc(CNC(=O)c2ccc3c(c2)S(=O)(=O)c2ccccc2C3=O)cc(OC)c1 | 0.18 | 0.25
O=c1c2[nH]cnc2n(-c2cccc(Br)c2)c(=O)n1Cc1ccccc1 | 0.43 | 0.89
Cn1c(=O)c2c(ncn2CC(=O)OCC(=O)NC2CCCc3ccccc32)n(C)c1=O (configuration not stated) | 0.07 | -0.01
CCOc1nc(C)ccc1-c1noc(CC)n1 | 0.39 | 0.15
Cc1cccc(Cn2cc(SCC(=O)Nc3nccs3)c3ccccc32)c1 | 0.14 | -0.45

Given with two lines to a compound: entries from further up.
The line under a structure holds: KCNQ2 pot, KCNQ2 pot baseline
Cc1cccc2c1-c1sc(C(=O)Nc3nccs3)cc1CO2
→ 0.53, -0.48
COc1cc(CNC(=O)c2ccc3c(c2)S(=O)(=O)c2ccccc2C3=O)cc(OC)c1
→ 0.18, 0.25
O=c1c2[nH]cnc2n(-c2cccc(Br)c2)c(=O)n1Cc1ccccc1
→ 0.43, 0.89

Next part.
Structure | KCNQ2 pot | KCNQ2 pot baseline
O=C(NC(Cc1c[nH]c2ccccc12)C(=O)N/N=C/c1ccc(Cl)cc1)c1cccs1 (configuration not stated) | 0.02 | -1.4
Cc1ccc(Nc2ccc(C(=O)O)cc2[N+](=O)[O-])cc1 | 1.4 | -0.97
CCOc1ccccc1-c1nc(C(N)=O)c2[nH]c(=O)n(-c3cccc(C)c3)c2n1 | 0.86 | 0.57
CCOC(=O)C(=CNc1cccc(C)n1)C(=O)OCC | 0.04 | 0.29
O=C(Nc1ccc2oc(=O)ccc2c1)c1ccc(-c2cccc([N+](=O)[O-])c2)o1 | 1.6 | -1.9
Cc1cc(C)c(C)c(C(=O)c2ccccc2C(=O)O)c1C | 0.47 | -0.02
COc1ccc(/C=N/NC(=O)c2ccccc2NC(=O)c2ccco2)c(OC)c1 | 0.36 | 1.5
O=C1NC(CCc2ccccc2)C(=O)N1Cc1cccc2ccccc12 (configuration not stated) | 0.06 | -0.66
CC(CC(=O)N1CCN(c2ccccc2)CC1)S(=O)(=O)c1ccc2c(c1)NC(=O)CO2 (configuration not stated) | 1.5 | 0.2
O=C(c1cccc(-c2nnc(-c3ccccc3)o2)c1)N1CCCCC1 | 0.13 | -0.32
Cc1cc(/C=C2/NC(=O)NC2=O)c(C)n1-c1ccc(C#N)cc1 | 1.7 | 0.97
COc1ccc(CC(=O)NNc2ncnc3c2cnn3-c2ccc(C)cc2)cc1 | 0.8 | -0.06
COc1cccc(C(=O)NCC(=O)N/N=C(C)\C=C\c2ccccc2)c1 | 0.05 | -0.64
C=CCOc1ccc(CNCc2cccnc2)cc1 | 0.06 | -0.28
COc1ccc(NC(=O)CSc2n[nH]c(-c3ccco3)n2)cc1 | 0.1 | -0.21
CN(C)Cc1ccccc1CCc1ccccc1 | 0.68 | 0.67
COC(=O)Cc1[nH]nc2c1C(c1cccc(OC)c1OC)C(C#N)=C(N)O2 (configuration not stated) | 1.4 | 1.4
CCN(CCNC(=O)c1cccc(N2CCCC2=O)c1)c1ccccc1 | 0.69 | -0.63
COc1ccccc1C(=O)NC(=S)Nc1ccc(N2CCCC2)cc1 | 0.54 | 0.01
COc1cccc(N(CC(=O)NC(C)(C)C)C(=O)C2CSC(=O)C2)c1 (configuration not stated) | 0.03 | 1.4
Cc1cccc(Nc2ncnc3c2cnn3C)c1 | 1.7 | 0.58
Cc1ccc(S(=O)(=O)c2c(C)cc(C)nc2N2CCCC2)cc1 | 0.03 | 0.26
O=C(Nc1cccc2c1CCCC2)C1CCN(c2nnnn2-c2ccccc2)CC1 | 0.44 | 0.28
Nc1nonc1-c1nc2ccccc2n1CC(=O)N/N=C/c1ccc(-c2cccc(C(=O)O)c2)o1 | 2.4 | -0.66
Cc1cc(-c2nnc(CCC(=O)N(CC3CC3)CC3CCCO3)o2)no1 (configuration not stated) | 0.05 | -0.26
CN(c1c[nH]c(=O)[nH]c1=O)C1CCCCC1 | 1.4 | -0.85
Nc1ccc2nc(CCCO)[nH]c2c1 | 0.84 | 0.85
O=C(CNS(=O)(=O)c1cccc(Br)c1)NCC1CCCCC1 | 0.94 | 1.4
COc1cccc(CNC(=O)C2CCN(S(=O)(=O)c3ccc(C)cc3)CC2)c1 | 2.2 | -1.2
Cc1cccc(N(C(=O)c2ccc(CN3CCOCC3)o2)C(C(=O)NC2CCCCC2)c2ccc(F)cc2)c1 (configuration not stated) | 0.8 | -0.1
CC1(C)COC2(OC1)C(=O)Nc1ccccc12 | 0.19 | -0.08
COc1ccc(N(CC(=O)N2CCN(C)CC2)S(=O)(=O)c2ccccc2)cc1OC | 0.51 | -0.36
O=C(CSc1ncn[nH]1)N/N=C/c1ccc(C(F)(F)F)cc1 | 0.45 | 1.7
O=C(N/N=C/c1sc(=O)n(Cc2ccc(Br)cc2)c1Cl)c1ccco1 | 0.19 | -0.66
CSc1sc(C)cc1/C=N/O | 0.12 | 1.2
CCOc1ccc(-c2nc(C#N)c(NC3CC3)o2)cc1 | 0.23 | 0.26
CC(C)(C)N=C1SCC(C)(/C=N/O)S1 (configuration not stated) | 1.1 | -0.03
N#Cc1c(SC(C(=O)O)c2ccccc2)nc2c(c1-c1cccs1)CCCC2 (configuration not stated) | 1.5 | -0.27
O=C(CC(=O)c1cc(Cl)ccc1O)c1ccccc1 | 5.3* | -1.9*
c1ccc2c(N3CCCCC3)nc(N3CCCC3)nc2c1 | 1.7 | 2.1
COC(=O)C1CN(C(=O)COc2ccc(C)cc2)c2ccccc2O1 (configuration not stated) | 0.07 | 0.72
CCC(=O)N(CC(=O)Nc1sc(C)c(C)c1C(N)=O)C1CCCCC1 | 1.5 | -1.9
CC(C)C1CC(CCNCc2ccc(N(C)C)cc2)(c2ccccc2)CCO1 (configuration not stated) | 1.9 | 0.33
COc1ccc(C(=O)c2ccc(OC)c(Br)c2)cc1Br | 1.1 | 0.68
Cc1ccnc(NC(=O)c2cccc(S(=O)(=O)N3CCCC3)c2)c1 | 2.9 | -0.81
O=C(NC1CCN(Cc2ccccc2)CC1)C12CC3CC(CC(C3)C1)C2 | 1.9 | -0.07
COC(=O)c1oc2nc(C)cc(C)c2c1N | 0.68 | -2.2
NC(=O)NC(c1ccccc1)c1ccccc1F (configuration not stated) | 0.22 | 0.38
O=c1nc2ccccn2c2ccc(S(=O)(=O)N3CCCCC3)cc12 | 0.1 | -0.34
Cc1ccccc1NS(=O)(=O)c1ccc(C(=O)NCC2CCCO2)cc1 (configuration not stated) | 0.02 | -2
Cc1cc(C)cc(NC(=S)Nc2cccc3ccccc23)c1 | 0.69 | 0
CCc1cccc2c(=O)c(C(=O)N3CCCCCC3)c[nH]c12 | 4.3 | 0.45
COC(=O)c1ccc(OCc2nc(N)nc(N3CCOCC3)n2)cc1 | 0.1 | -0.32
COc1ccc(Br)cc1C(=O)Nc1ccc(O)cc1 | 0.1 | 0.23
CCc1ccccc1NC(=O)CC1CS(=O)(=O)CC1CC(=O)Nc1ccccc1CC (configuration not stated) | 0.07 | 0.3
COc1ccc(-n2nc(C(=O)NCC(=O)N3CCCC(C)C3)c3ccccc3c2=O)cc1 (configuration not stated) | 1.6 | -2.1

Following part
Structure | KCNQ2 pot | KCNQ2 pot baseline
CC(C)NC(=O)Cn1c(SCC(=O)N2CCCc3ccccc32)nc2ccccc21 | 0.71 | -0.5
Cc1nnc(N(Cc2ccco2)C(=O)c2cccc(C#N)c2)s1 | 0.55 | 0.02
CSc1nc(NCc2ccco2)c2ccccc2n1 | 1.6 | 1.5
COc1cc(C(=O)NCCc2ccc(S(N)(=O)=O)cc2)cc(OC)c1OC | 0.8 | 0.2
Cc1cc(O)ccc1NC(=O)c1ccccc1 | 3.2 | 0.03
CC(C)(C)NC(=O)C(c1ccncc1)N(C(=O)C1CSC(=O)C1)c1ccccc1 (configuration not stated) | 1.6 | 0.08
COc1ccc(C(C)=O)cc1Cn1nc(C)c([N+](=O)[O-])c1C | 0.97 | 0.55
CNc1nc(-c2ccc3c(c2)CCN3C(=O)c2ccccc2F)cs1 | 0.04 | -0.39
O=C(c1cccc(Cl)c1)N1CCC(N2CCC(C(=O)N3CCCC3)CC2)CC1 | 0.4 | 0.57
Cc1n(CC(O)COC2CCCCC2)c2ccccc2[n+]1C (configuration not stated) | 0.21 | -1
COc1ccc(-c2cc3nc(C)c(CCC(=O)N4CCN(c5ccccn5)CC4)c(C)n3n2)c(OC)c1 | 1.7 | -0.9
CC1(c2ccccc2)NC(=O)N(CC(=O)NC(=O)NC2CCCC2)C1=O (configuration not stated) | 2.7 | 0.1
CC(C)C(=O)Nc1cccc(NC(=S)NC(=O)c2cccs2)c1 | 0.79 | -1.3
CC(C)OCCCNC(=O)c1cn(C)c2ccc(S(=O)(=O)N3CCCC3)cc2c1=O | 2 | -0.13
O=C(c1cccc(S(=O)(=O)N2CCOCC2)c1)N1CCN(c2ccc(F)cc2)CC1 | 1.9 | -0.75
O=C(O)c1cccnc1 | 2.3 | -1.2
CN(C(=O)CN1C(=O)/C(=C/c2ccccc2Cl)SC1=S)C1CCS(=O)(=O)C1 (configuration not stated) | 0.39 | 0.15
CC(C)(C)NNC(=S)Nc1cccc(C(F)(F)F)c1 | 1 | -0.32
CC(=O)NS(=O)(=O)c1ccc(NC(=O)CSc2ccc(C)cc2)cc1 | 0.02 | 0.31
NC(=O)c1ncc(C(F)(F)F)cc1Oc1cccc(C(F)(F)F)c1 | 0.49 | -0.81
Cn1c2c(c(=O)n(C)c1=O)CN(Cc1ccc3c(c1)OCO3)CN2 | 0.46 | 3.1
CCN(CC)S(=O)(=O)c1ccc2[nH]cc(C(=O)NCCc3ccccc3)c(=O)c2c1 | 1.6 | -0.52
O=C(C1CC(=O)N(c2ccccc2)C1)N1CCN(c2ccccc2)CC1 (configuration not stated) | 2.4 | 0
C=CCNC(=O)/C(C#N)=C/c1ccc2c(c1)OCCO2 | 0.5 | 0.75
COc1ccccc1OC(C)C(=O)N1CC(=O)Nc2ccccc21 (configuration not stated) | 1.5 | 0.27
CS(=O)(=O)c1nc(S(=O)(=O)c2ccc(Cl)cc2)c(N2CCN(CCO)CC2)s1 | 0.38 | 0.64
COc1ccc(-c2csc(NC(=O)Cc3cc(OC)c(OC)c(OC)c3)n2)cc1OC | 0.01 | -1.4
CCOC(=O)Cn1c(=O)cc(C)c2ccccc21 | 1.9 | -0.66
O=C(NCc1ccc(F)cc1)C1CC(=O)N(CCc2ccccc2)C1 (configuration not stated) | 0.09 | 0.87
O=C(/C=C\c1ccc2c(c1)OCO2)CC1(O)C(=O)Nc2ccccc21 (configuration not stated) | 0.31 | 0.6
CCN(C(=O)C12CC3CC(CC(C3)C1)C2)C1CCS(=O)(=O)C1 (configuration not stated) | 1.6 | -0.59
CC(Sc1nc(-c2ccccc2)cs1)C(=O)Nc1ccc(Cl)cn1 (configuration not stated) | 2 | -1.7
Clc1ccc(-n2nnc(-c3cccnc3Cl)n2)cn1 | 0.8 | -3.2
COc1ccccc1NS(=O)(=O)c1cc(NC(=O)C2CCC2)ccc1N1CCCCC1 | 0.28 | -1
CC1=CC2=NC(=O)CC(C)(C(=O)N(CC(=O)NC(C)C)C3CCCC3)N2C=C1 (configuration not stated) | 0.47 | -0.87
COC(=O)C1=C(N)c2ccccc2C1(C#N)c1ccccc1 (configuration not stated) | 0.71 | -0.04

Seven entries already listed, ordered by the number in KCNQ2 pot, descending:
Structure | KCNQ2 pot | KCNQ2 pot baseline
O=C(C1CC(=O)N(c2ccccc2)C1)N1CCN(c2ccccc2)CC1 (configuration not stated) | 2.4 | 0
CCOC(=O)Cn1c(=O)cc(C)c2ccccc21 | 1.9 | -0.66
Cc1cc(/C=C2/NC(=O)NC2=O)c(C)n1-c1ccc(C#N)cc1 | 1.7 | 0.97
CC(C)(C)NC(=O)C(c1ccncc1)N(C(=O)C1CSC(=O)C1)c1ccccc1 (configuration not stated) | 1.6 | 0.08
CCN(CC)CCn1c2c(c(SCC(=O)Nc3cc(OC)cc(OC)c3)nc1=O)CCC2 | 1.4 | -0.95
CCOc1ccc(-c2nc(C#N)c(NC3CC3)o2)cc1 | 0.23 | 0.26
CC(=O)NS(=O)(=O)c1ccc(NC(=O)CSc2ccc(C)cc2)cc1 | 0.02 | 0.31

Screening data as filed in PubChem BioAssay.
